gsp antag: antagonists of gsp mutant (McCune-Albright syndrome); 340,000 compounds, 0.4% hits; gsp-mutant cells, cAMP HTRF, 30 min; control for the full effect not named in the record; Potency, µM (doses to about 76.9 µM), without a hit: at the highest dose activity change, negative = inhibition, most hits filed as inhibitors; active = falling curve of any shape with a large fitted effect; inconclusive = falling curve, mostly with a smaller effect; inactive = flat or rising curve; cell line not stated here;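 also: intracellular cAMP measured with PDE inhibitor Ro 20-1724 present during compound exposure; potency is read from the fitted curve at half-maximal effect; % is scaled to controls: 0 for no effect and ±100 for the full control effect; nearly all actives have a fitted effect of over 65% in size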
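Measurement of cellular cAMP by homogeneous time-resolved fluorescence following a 30 min compound exposure at 37C. The PDE inhibitor […] was present throughout; the assay buffer was DPBS with 0.05% BSA and 0.005% Tween 20.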
Sfp PPTase inh: inhibitors of Bacillus subtilis Sfp phosphopantetheinyl transferase; Q9F4F7; Biochemical Sfp PPTase activity, qHTS; Potency, µM, inactives show max response, negative = inhibition, most hits filed as inhibitors; 310,000 compounds, 3.5% hits; active = well fitted inhibition curve with a large enough effect; inconclusive = small, poorly fitted or top-dose-only effect, or another doubt; inactive = no such curve, though single readings can be large or run the other way;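 also: the enzyme is Sfp with the accession as filed and its product quenches rhodamine fluorescence; potency is read from the fitted curve at half-maximal effect; 0% = enzyme reaction without inhibitor and -100% = no enzyme wells; top concentration of the series not given in the record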
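Sfp 15 nM + cpd, 15 min RT; start w/ rhodamine-CoA 5 uM, BHQ-2-YbbR 12.5 uM (final); 50 mM Hepes pH 7.6, 10 mM MgCl2, 0.01% NP-40, 0.01% BSA; read 525/598 nm at 0 and 30 min.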
D2 potentiator: potentiates the human D2 dopamine receptor allosterically; P14416; DiscoveRx D2 beta-arrestin cells, luminescence, 90 min; 100% = 57 uM dopamine signal; potentiation, % (test concentration not listed); 360,000 compounds, 0.23% hits; AID 624464; active = potentiation of 50% or more; inconclusive = 30% to 50%; inactive = 30% or less;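 also: compound concentration not given in the record; tested on top of an EC20 dose of dopamine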
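D2 cells co-treated with compound plus 50 nM dopamine (EC20) for 90 min at 37 deg C to detect potentiation. Beta-arrestin recruitment was read as enzyme-fragment luminescence after 1 h at ambient temperature. Full response was set by 57 uM dopamine.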
Menin-MLL FL inh: inhibitors of human menin-MLL interaction, wild-type MLL peptide; Fluorescence polarization, fluorescein-MLL peptide displacement from menin; FP activity change, % at 61.4 µM; 290,000 tested, under 10 active; AID 1766; inconclusive = falling polarisation curve, or a change in total fluorescence; inactive = total fluorescence flat and polarisation flat or rising; no compound was filed as active; the % refers to the polarisation; negative = inhibition;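 also: % of control where 0% means no effect; inhibitors lower the polarisation; unlabelled MLL peptide was the positive control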
TRPV1 PAM: human TRPV1 potentiation. Q8NER1. TRPV1-expressing cells, Fluo-8 calcium influx, capsaicin EC20 potentiation; host cell line not named in the record; control for the full effect not named in the record. potentiation, % at 8.33 µM. 320,000 compounds, 0.02% hits; active means potentiation above 80%; inconclusive means 30% to 80%; inactive means below 30%; also: 0% is about no effect
Target sequence (Q8NER1 whole entry, looked up): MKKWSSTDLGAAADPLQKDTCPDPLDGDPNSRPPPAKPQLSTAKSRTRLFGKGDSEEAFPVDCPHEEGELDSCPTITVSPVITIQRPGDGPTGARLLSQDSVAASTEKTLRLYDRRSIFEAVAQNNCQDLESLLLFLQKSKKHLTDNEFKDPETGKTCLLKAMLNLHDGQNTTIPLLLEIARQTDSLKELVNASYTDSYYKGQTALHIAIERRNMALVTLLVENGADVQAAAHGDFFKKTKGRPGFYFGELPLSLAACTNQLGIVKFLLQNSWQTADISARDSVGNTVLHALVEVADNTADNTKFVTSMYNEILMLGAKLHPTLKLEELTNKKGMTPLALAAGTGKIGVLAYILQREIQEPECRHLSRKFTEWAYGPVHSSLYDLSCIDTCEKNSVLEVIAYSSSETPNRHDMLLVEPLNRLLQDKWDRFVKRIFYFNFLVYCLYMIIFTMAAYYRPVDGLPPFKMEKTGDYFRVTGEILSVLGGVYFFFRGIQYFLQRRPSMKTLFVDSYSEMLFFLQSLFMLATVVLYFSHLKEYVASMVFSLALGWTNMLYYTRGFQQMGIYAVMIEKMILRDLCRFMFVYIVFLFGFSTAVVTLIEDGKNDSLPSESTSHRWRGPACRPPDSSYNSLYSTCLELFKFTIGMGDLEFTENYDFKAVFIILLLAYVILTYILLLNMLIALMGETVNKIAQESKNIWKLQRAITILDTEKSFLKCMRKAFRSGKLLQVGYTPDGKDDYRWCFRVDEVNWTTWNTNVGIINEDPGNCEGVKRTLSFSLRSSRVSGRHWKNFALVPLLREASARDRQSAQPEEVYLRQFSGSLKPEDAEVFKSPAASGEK
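TRPV1-expressing cells were cultured overnight at 35.5C and loaded with Fluo-8 calcium dye for 40 to 90 min at room temperature. After a 10 s baseline, compound was added and calcium influx was read kinetically for 3 min (ex 480/em 520 nm).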
gsp agonist: gsp mutant agonism | 340,000 compounds, 0.13% hits | Potency, µM (doses to about 76.9 µM), inactives show at the highest dose activation (cAMP increase), actives largely listed as activators | AID 624287 | gsp mutant cells, cAMP HTRF, 30 min; control for the full effect not named in the record; active = well fitted activation curve with a large enough effect; inconclusive = small, poorly fitted or top-dose-only effect, or another doubt; inactive = no such curve, though single readings can be large or run the other way; cell line not stated here;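 also: phosphodiesterase inhibitor Ro 20-1724 added with compounds to block cAMP breakdown; potency is read from the fitted curve at half-maximal effect; nearly all actives have a fitted effect of over 60% in size; about a fifth of the inactives were tested at one dose only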
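Cells in DMEM/10% FBS with G418 were pretreated with compounds in DMSO plus […] (300 uM stock) for 30 min at 37C. cAMP was measured by HTRF (cAMP-d2 plus anti-cAMP antibody-K) after 30 min at room temperature.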
ClpP mod: qHTS Assay for Activators of ClpP | purified B. subtilis ClpP, FRET peptide cleavage, 20 min | Potency, µM (top dose mostly 57.5 µM), for the others: top-dose activity change, negative = active | ATP-dependent Clp protease proteolytic subunit (Bacillus subtilis (strain 168)), P80244 | 340,000 compounds, 1.9% hits; active = well fitted falling curve with a large enough effect; inconclusive = small, poorly fitted or top-dose-only effect; inactive = no such curve, though single readings can be large or run the other way; also: potency is read from the fitted curve at half-maximal effect; the source files actives as falling curves though it sought activators and does not explain the sign; nearly all actives have a fitted effect of over 65% in size; many hits overshoot -100%
Target sequence (P80244 whole entry, looked up): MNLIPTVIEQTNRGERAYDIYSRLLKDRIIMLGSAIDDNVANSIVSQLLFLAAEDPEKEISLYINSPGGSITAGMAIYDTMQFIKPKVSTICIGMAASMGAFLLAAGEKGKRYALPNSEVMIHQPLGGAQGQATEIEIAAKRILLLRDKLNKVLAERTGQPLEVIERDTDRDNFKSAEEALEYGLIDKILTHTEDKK
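FRET quenching reversal measured ClpP activation: 10 microg/mL B. subtilis ClpP at pH 8 with the FRET-FV decapeptide, read at 430 nm after 320 nm excitation. The 20-min minus 0-min signal was scaled between DMSO/no-enzyme wells and ADEP (5.8 microM final).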
Numbers without * were called inactive; u = inconclusive; x = not tested or not shown; [ ] = remark or other dose.

Values run as follows: gsp agonist, gsp antag, D2 potentiator, Sfp PPTase inh, Menin-MLL FL inh, ClpP mod, TRPV1 PAM
- COc1ccc(/C=N/N=C2/NC(=O)CC(C(=O)O)S2)cc1 (stereo not given)
    14%[15.4 µM], -19%, -7, 1%, 0.6, 0.9%, 15
- CC1(C)C(=O)OC(c2c3ccccc3cc3ccccc23)C(C)(C)C1=O (stereo not given)
    -8%[15.4 µM], -18%, -4, 5%, 5.1, x, 3
- Cc1cccc(CN2C[C@]34C=C[C@@H](C[C@@H]3S2(=O)=O)O4)c1
    5%, 7%, -5, 1%, -4.2, -0.6%, u
- COc1ccc(Cc2nc(-c3ccc(Cl)cc3)no2)cc1
    0%, 4%, -8, 7%, 4.8, -1.5%, -1
- CCOC(=O)CCNC(=O)Nc1ccc2nc(C)n(Cc3ccc(Cl)cc3)c(=O)c2c1
    -8%, 5%, 16, -13%, 2.3, -24%, 24
- COc1ccccc1CN1C[C@@H]2C[C@@H](c3ccc(C)c(C)c3)N3CCC[C@@]23C1=O
    7%[15.4 µM], 1%, -6, -1%, 1.9, x, -2
- CCCCn1c(N)c(N(CCOC)C(=O)c2ccc(S(=O)(=O)N(CC)c3ccccc3)cc2)c(=O)[nH]c1=O
    -4%, 13%, 3, x, x, 1.9%, 4
- CCCCOc1ccc(C(=O)NCC(=O)NNC(=O)C2COc3ccccc3O2)cc1 (stereo not given)
    10%, 10%, 1, x, x, -0.1%, 6
- COc1cc(C(=O)O)cc(Br)c1OC1CCCC1
    -87%[inhibitor], -10%, -19, 9%, 0.1, -16%, 6
- CCOP(=O)(OCC)c1nc(-c2ccc(Cl)cc2Cl)oc1N1CCOCC1
    -42%[inhibitor], -4%, -5, 12%, -4.9, -18%, -2
- Cc1ccc(N=C(NO)c2nonc2N)cc1
    2%, -4%, -4, 7%, 0.9, 0.3%, -3
- O=C(NCCNC(=O)c1ccccn1)c1ccc(Cl)cc1
    -7%[15.4 µM], -14%, -7, 10%, -3.6, -0.5%, -7
- O=C(NCc1ccc2c(c1)OCO2)c1cccc(S(=O)(=O)N2CCCCC2)c1
    7%, -13%, -15, -20%, -1.5, 0.5%, -7
- Cc1ccccc1S(=O)(=O)NCc1ccc(N2CCN(C)CC2)cc1
    -1%, 8%, -14, 12%, 2.9, 0.1%, 15
- COc1cc2c(c(OC)c1OC)C(=O)CO2
    8%[15.4 µM], -4%, -7, x, x, -0.9%, x
- O=C(CCCN1C(=O)/C(=C/c2ccccc2)SC1=S)N1CCOCC1
    -2%[15.4 µM], -18%, 7, -7%, x, x, -16
- Cn1cccc1/C=C1\SC(=S)N(Nc2ccccc2)C1=O
    -4%, -15%, -17, -23%, u, 0.0%, -12
- C#CCN(C[C@@H]1[C@@H](OC(=O)NCc2ccccc2F)[C@@H](OC(=O)NCc2ccccc2F)Cn2c(=O)ccc(=O)n21)S(=O)(=O)c1ccc(C)cc1
    -6%, x, -3, x, x, -0.2%, x
- COc1cc(C(=O)N2CCN(c3cccc(C)c3C)CC2)cc(OC)c1OC
    -5%, 9%, 1, 13%, -2.2, 2.7%, -22
- O=C(Nc1ccnn1C1CCN(Cc2ccccc2)CC1)C1CCCC1
    -8%[15.4 µM], 14%, -39, -1%, -9.7, 0.4%, -9
- COc1cc(Cl)c(NC2=CC(=O)C(=O)c3ccccc32)c(OC)c1
    1%, -19%, 5, x, x, -1.0%, -17
- Cc1ccc(CC(=O)Nc2ccc([N+](=O)[O-])cc2C)cc1
    -29%, 9%, -2, -10%, 4.6, 0.0%, 9
- CN(C(=O)c1ccc2c(c1)OCO2)C1(C(=O)NC2CCCCC2)CCCCC1
    -6%, 5%, -4, 2%, 1.9, 0.4%, -17
- CC(C)c1ccc(NC(=O)COC(=O)/C=C/c2cccc([N+](=O)[O-])c2)cc1
    4%, -6%, 7, -15%, 8.4, -0.8%, 10
- Cc1cccc(C(=O)NC2CCN(S(=O)(=O)c3ccccc3F)CC2)c1
    9%, -5%, 2, 21%, -1.2, 0.8%, -21
- Cc1nc(N2CCN(Cc3ccc(Cl)cc3)CC2)c2oc3ccccc3c2n1
    u, -16%, -7, 22µM*, 2.4, x, 1
- Cn1nc(C(=O)NNC(=O)c2ccc(Cl)cc2)ccc1=O
    17%[15.4 µM], 6%, -4, x, x, -1.5%, 21
- CC(C)N(CCc1ccncc1)C(=O)Nc1ccc(Cl)c(Cl)c1
    u, -7%, -9, 25%, 0.5, 0.6%, x
- Cc1ccc(C(C(=O)NC2CCCCC2)N(Cc2ccccc2)C(=O)Cc2c[nH]c3ccccc23)o1 (stereo not given)
    -57%[inhibitor], -11%, 4, 12%, 7.3, -1.3%, 10
- CCN(CC(=O)Nc1ccc(OC)c(OC)c1)CC(=O)Nc1ccccc1C(F)(F)F
    19%, 1%, 0, 6%, 5.7, x, 1
- COc1ccc(OC)c(NC(=O)c2ccc3c(c2)OCO3)c1
    -38%, -9%, -2, 8%, 4.0, 0.8%, -1
- COc1ccc([C@H]2CC(=O)C=C(c3ccc(Cl)c(F)c3)C2)cc1
    0%, -4%, -9, x, x, -1.3%, -11
- Cc1ccccc1C(=O)Nc1ccc(Br)c(C)n1
    -10%, -4%, -4, 1%, -0.1, -2.1%, -13
- C=C[C@@H]1c2c(F)cccc2N(S(=O)(=O)c2ccc(C)cc2)[C@H](c2ccc(OC(C)=O)cc2)C1(C#N)C#N
    -20%, -2%, -7, x, x, -2.7%, 10
- Cc1cc2c(N=O)c(NO)ccc2[nH]1
    u, -20%, 63*, 11%, 7.1, -1.3%, -2
- CCOC(=O)/C(C#N)=C/Nc1ccccc1NS(=O)(=O)c1cccc(C(C)=O)c1
    9%, -11%, 0, 0%, -3.8, x, 5
- CCCCCOC(=O)C1C(c2ccccc2)C(C(=O)O)C1c1ccccc1 (stereo not given)
    -18%, -4%, -2, 13%, -2.8, 27%, 14
- CCCc1nnc(SCC(=O)N2CCCC(C)C2)n1CCOC (stereo not given)
    19%, 7%, -5, -6%, -0.5, x, -6
- COCC(C)NC(=O)CCS(=O)(=O)c1nc(-c2ccc(OC)cc2)cc(C(F)(F)F)n1 (stereo not given)
    -13%, 19%, -29, 6%, -1.8, 6.2%, 9
- O=C(COc1ccc(Br)cc1)Nc1ccc(N2CCOCC2)cc1N1CCOCC1
    49%, 3%, -3, x, x, -0.1%, 1
- Cc1ccc(SCC(=O)Nc2ccc(S(=O)(=O)Nc3nccs3)cc2)cc1
    12%, -4%, 2, 5%, 1.4, -2.0%, 10
- CCN1CC(CN(C)Cc2nc(COc3ccccc3)no2)CC1=O (stereo not given)
    5%[15.4 µM], 7%, -5, 5%, 3.0, x, 7
- Cc1noc(C)c1S(=O)(=O)Nc1ccc2c(c1)C(=O)N([C@H](C)CO)C[C@H](C)[C@@H](CN(C)S(=O)(=O)c1ccc(F)cc1)O2
    x, -18%, -2, x, x, -4.6%, x
- COC(=O)COc1cccc2c(=O)n(CC(=O)NCc3ccc(F)cc3)ccc12
    u, 11%, -1, 10%, -0.8, u, -1
- Cc1ccc(S(=O)(=O)N2CCN(Cc3ccccc3)CC2)cc1
    1%, -2%, -7, 3%, -0.7, 0.8%, -13

The list goes on, starting with the last 2 of the part before.
Values run as follows: gsp agonist, gsp antag, D2 potentiator, Sfp PPTase inh, Menin-MLL FL inh, ClpP mod, TRPV1 PAM
- COC(=O)COc1cccc2c(=O)n(CC(=O)NCc3ccc(F)cc3)ccc12
    u, 11%, -1, 10%, -0.8, u, -1
- Cc1ccc(S(=O)(=O)N2CCN(Cc3ccccc3)CC2)cc1
    1%, -2%, -7, 3%, -0.7, 0.8%, -13
- NC(=O)c1cccc(S(=O)(=O)N2CCCCC2)c1
    0%, 5%, -15, 16%, 0.0, 1.4%, 3
- Cc1nn(C(C)C(=O)N2CCc3ccccc3C2)c(=O)c2cc3occc3n12 (stereo not given)
    u, 1%, -12, -6%, 3.9, -14%, -15
- COc1ccccc1NC(=O)c1cccnc1
    u, 7%, 5, -9%, 3.8, 3.2%, 19
- CN(C)S(=O)(=O)Oc1ccsc1C(=O)Nc1ccc(C(F)(F)F)cc1
    -1%[15.4 µM], u, -3, 23%, 2.5, x, -1
- CC(C)CCNC(=O)c1onc(CSc2ccc(F)c(F)c2)c1C(=O)NCCC(C)C
    x, -5%, -5, 6%, -2.7, 0.0%, -2

5 entries from above, ordered by the number in D2 potentiator, smallest number first:
| smiles | D2 potentiator |
| --- | --- |
| COCC(C)NC(=O)CCS(=O)(=O)c1nc(-c2ccc(OC)cc2)cc(C(F)(F)F)n1 (stereo not given) | -29 |
| COc1cc(C(=O)O)cc(Br)c1OC1CCCC1 | -19 |
| COc1ccc(OC)c(NC(=O)c2ccc3c(c2)OCO3)c1 | -2 |
| Cc1ccc(SCC(=O)Nc2ccc(S(=O)(=O)Nc3nccs3)cc2)cc1 | 2 |
| O=C(CCCN1C(=O)/C(=C/c2ccccc2)SC1=S)N1CCOCC1 | 7 |

Entries listed so far printed as active in Sfp PPTase inh:
structure	gsp agonist	gsp antag	D2 potentiator	Sfp PPTase inh	Menin-MLL FL inh
Cc1nc(N2CCN(Cc3ccc(Cl)cc3)CC2)c2oc3ccccc3c2n1	u	-16%	-7	22µM*	2.4
